# miR-21 FLuc: raises the signal of a miR-21 reporter; HeLa miR-21 FLuc reporter, luciferase, 48 h; Potency, µM (series often up to 38.3 µM), for inactives: at the top dose reporter change, positive = more light; 340,000 tested, under 10 active; active = well fitted rising curve with a large enough effect; inconclusive = small, poorly fitted or top-dose-only effect; inactive = no such curve, though single readings can be large or run the other way;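 further: % of control where 0% means no effect; miR-21 action dims this reporter so a rising signal means less miR-21 action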
#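 Luminescence from a firefly luciferase reporter carrying a miR-21 binding site downstream, stably expressed under a CMV promoter in HeLa cells that make miR-21 endogenously, reports miRNA modulation after 48 h compound exposure up to approximately 40uM final.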
# GLA inh pH 4.5: inhibitors of human alpha-galactosidase A at pH 4.5; P06280; purified enzyme, 4-MU-alpha-Gal fluorescence, pH 4.5; activity change, negative = inhibition, % at 105 µM; 230,000 tested, under 10 active; AID 1467; inconclusive = small, poorly fitted or top-dose-only inhibition, or a rising curve; inactive = flat fitted curve, though single readings scatter; no compound was filed as active;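 further: 0% = full activity with enzyme and -100% = basal without enzyme; dose as in the result columns while the protocol names 77 µM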
# Target sequence (P06280 whole entry, looked up): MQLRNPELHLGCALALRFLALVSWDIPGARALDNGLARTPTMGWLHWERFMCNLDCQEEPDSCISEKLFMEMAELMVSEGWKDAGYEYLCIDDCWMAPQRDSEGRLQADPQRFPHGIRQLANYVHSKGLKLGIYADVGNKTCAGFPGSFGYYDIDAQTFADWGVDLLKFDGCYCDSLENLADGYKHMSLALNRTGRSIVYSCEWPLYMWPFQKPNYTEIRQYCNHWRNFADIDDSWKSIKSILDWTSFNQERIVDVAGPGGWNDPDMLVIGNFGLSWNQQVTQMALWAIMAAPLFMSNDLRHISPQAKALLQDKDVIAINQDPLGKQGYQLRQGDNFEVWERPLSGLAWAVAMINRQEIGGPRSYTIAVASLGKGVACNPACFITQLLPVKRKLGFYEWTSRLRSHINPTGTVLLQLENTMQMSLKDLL
# Rango-impB inh: inhibitors of Rango-importin beta complex formation. Q14974. Rango CFP/YFP FRET sensor + importin beta, 45 min. Potency, µM (highest dose often 92.2 µM), for the others: at the highest dose inhibition of complex formation. 340,000 compounds, 0.031% hits. AID 540263; active = rising FRET ratio curve, often small or poorly fitted; inconclusive = mostly compound fluorescence or quenching in the first reads; inactive = flat curves in all reads;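 further: potency means the concentration at half of the fitted maximal effect; 0% = DMSO wells and 100% = buffer wells lacking importin beta; nearly all actives have a fitted effect of over 15% in size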
#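 Inhibition scored from the CFP 486 nm/YFP 530 nm FRET ratio 45 min after adding 0.125 microM importin beta to 50 nM Rango biosensor preincubated 5 min with compound (room temperature, PBS with DTT, Tween-20, BSA). No-importin wells as positive control.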
# Rango release inh: inhibitors of RanGTP-induced Rango-importin beta complex dissociation. O95149+P62826. Biochemical FRET Rango-importin beta, RanGTP-induced dissociation. Potency, µM (series often up to 46.1 µM), inactives show at the top dose activity change, negative = inhibition. 340,000 compounds, 0.071% hits. AID 540253; active means falling FRET ratio curve, often poorly fitted, with flat reads before Ran was added; inconclusive means other falling curves, or compound fluorescence or quenching; inactive means flat or rising ratio curve;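 further: potency means the concentration at half of the fitted maximal effect; % of control where 0% means no effect; nearly all actives have a fitted effect of over 45% in size; -100% = wells without RanGTP and RCC1; the record marks most hits as doubtful in a second field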
#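 Compounds preincubate 5 min with complex of recombinant Rango and importin beta in PBS with 1 mM DTT. Ran (0.6 uM) loaded with 2 mM GTP plus 0.2 uM RCC1 starts dissociation; FRET is recorded 45 min later.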
# * = called active by the depositor; ? = inconclusive; . = no result given; & = joins results of further samples.
miR-21 FLuc | GLA inh pH 4.5 | Rango-impB inh | Rango release inh | mol
10.5% | 0.1 | -4.2% | 10.7% | O=C(Cc1ccc(-n2c(=O)[nH]c3ccccc3c2=O)cc1)N1CCN(c2cccc(Cl)c2)CC1
. | . | -0.5% | -3.9% | COc1cccc(CNC(=O)c2ccc(OC)c(S(=O)(=O)NC3CCCC3)c2)c1
4.1% | 1.8 | -0.1% | -3.3% | CC(=O)Nc1ccccc1OCCOc1ccc(Br)cc1
0.2% | 3.6 | -0.3% | 0.5% | COc1ccccc1/C=C\C(=O)NCC(=O)N/N=C(\C)Cc1ccccc1
-1.2% | . | -0.8% | -11.6% | CCOc1ccc(CC(=O)N/N=C(\C)c2cccnc2)cc1
-0.5% | 2.5 | -1.6% | 6.8% | CCOc1ccc2nc(SCC(=O)Nc3ccc(S(=O)(=O)N4CCCC4)cc3)c(C)cc2c1
-0.3% | 3.4 | -1.8% | 2.9% | CCCCN(C)CCNC(=O)c1c[nH]c2ccc(S(=O)(=O)N(CC)CC)cc2c1=O
. | . | 3.4% | -11.4% | COc1cc(OCc2ccccc2)c(OC)c(OCc2ccccc2)c1
-17.9% | -4.6 | 1.7% | 1.6% | Cc1ccc(NC(=O)C2(c3ccccc3)CCOCC2)c([N+](=O)[O-])c1
-1.8% | -1.7 | -0.6% | -9.0% | COC(=O)Nc1ccc(S(=O)(=O)N2CCC(C(=O)NC3CCCCC3)CC2)cc1
-9.2% | 6.1 | 2.2% | -13.5% | Cc1cc(NC(=O)CCC(=O)N(c2cccc(F)c2)C(C(=O)NC2CCCC2)c2ccncc2)no1 (centres undefined)
. | . | -2.5% | -1.0% | CC1CCCCC12NC(=O)N(CC(=O)Nc1ccc(Cl)c(S(=O)(=O)N3CCOCC3)c1)C2=O (centres undefined)
-12.4% | 3.3 | 0.2% | 15.4% | Cc1cccc(-c2nnc3sc(-c4ccccc4)nn23)c1
-1.3% | 2.1 | -0.5% | -8.3% | O=C1CCC(=O)N1CC1CC2CCC1C2 (centres undefined)
. | . | 2.7% | 12.4% | C[C@@H](NC(=O)Cn1ccc(N)nc1=O)c1cccc2ccccc12
-9.5% | -16.7 | -2.9% | 4.4% | COc1ccc(NC(=O)N2CCCc3cccc(C)c32)cc1
-2.0% | 0.0 | -2.3% | 2.6% | C/C(=C\C(=O)c1ccc(Cl)cc1Cl)N(C)C
. | . | 1.8% | 2.3% | COC(C[C@H]1O[C@@H]1[C@H](O)[C@H](C)OCc1ccccc1)OC
0.5% | -6.2 | 1.4% | -15.5% | O=C(NCCCl)NNC(=O)c1cc2ccccc2cc1O
-25.1% | -6.6 | 1.2% | 3.9% | CCOc1ccc(C(=O)c2nc3c(n2O)CCCCC3)cc1
-8.1% | 9.2 | -6.0% | -4.9% | Cc1nnc(SC(C)C(=O)Nc2ccc3c(c2)OCCO3)s1 (centres undefined)
-4.5% | -2.8 | 2.6% | -7.3% | COc1cccc(-c2cc(C(=O)N3CCN(c4ncccn4)CC3)c3ccccc3n2)c1
-4.4% | . | -0.5% | 19.9% | O=C(NCc1ccccc1)c1cccc(S(=O)(=O)N2CCCCC2)c1
-1.3% | . | -0.1% | -5.6% | COc1cc(C(=O)NCC2CCCO2)ccc1OCc1ccccc1 (centres undefined)
-1.6% | -5.0 | 0.0% | 6.0% | COc1cccc(N2C(=O)CC(N3CCC(c4nc5ccccc5[nH]4)CC3)C2=O)c1 (centres undefined)
-11.4% | 5.3 | -0.9% | -0.2% | CCCC(=O)Nc1ccc(Cl)c(NC(=O)c2ccc(Br)o2)c1
. | . | -1.6% | -1.6% | O=C(OCc1ccccc1)N1CCC2CC1c1c(Cl)cccc12 (centres undefined)
0.4% | -4.5 | 3.8% | 18.5% | O=C(NCC(=O)N(c1cccnc1)C(C(=O)NC1CCCCC1)c1cccnc1)c1ccco1 (centres undefined)
22.6% | 8.5 | 0.2% | -1.8% | Cc1cc(C)c(C(=O)CSc2nc3ccccc3c(=O)[nH]2)cc1C
. | . | 0.0% | -4.9% | COc1ccc(NS(=O)(=O)c2cccc(C(=O)NCC(c3ccco3)N3CCCC3)c2)cc1 (centres undefined)

# Part of the list above in order of molecular weight, lowest first.
miR-21 FLuc | GLA inh pH 4.5 | Rango-impB inh | Rango release inh | mol
-1.2% | . | -0.8% | -11.6% | CCOc1ccc(CC(=O)N/N=C(\C)c2cccnc2)cc1
-4.4% | . | -0.5% | 19.9% | O=C(NCc1ccccc1)c1cccc(S(=O)(=O)N2CCCCC2)c1
10.5% | 0.1 | -4.2% | 10.7% | O=C(Cc1ccc(-n2c(=O)[nH]c3ccccc3c2=O)cc1)N1CCN(c2cccc(Cl)c2)CC1

# Returning to the listing; the 3 compounds before the break are reprinted first.
miR-21 FLuc | GLA inh pH 4.5 | Rango-impB inh | Rango release inh | mol
0.4% | -4.5 | 3.8% | 18.5% | O=C(NCC(=O)N(c1cccnc1)C(C(=O)NC1CCCCC1)c1cccnc1)c1ccco1 (centres undefined)
22.6% | 8.5 | 0.2% | -1.8% | Cc1cc(C)c(C(=O)CSc2nc3ccccc3c(=O)[nH]2)cc1C
. | . | 0.0% | -4.9% | COc1ccc(NS(=O)(=O)c2cccc(C(=O)NCC(c3ccco3)N3CCCC3)c2)cc1 (centres undefined)
-0.3% | 1.7 | -3.0% | -5.8% | COC(=O)c1nc(NC(=O)c2ccc(F)cc2)n[nH]1
-0.6% | . | 1.0% | ? | CCOc1ccc(CN(C)C(=O)[C@H](C)NC(=O)c2ccco2)cc1OC
. | . | -3.5% | -5.5% | COc1ccc(C2=NOC(Cn3nc(-c4ccccc4)cc3C(=O)NCc3ccccc3OC)C2)cc1 (centres undefined)
2.6%&-0.2% | . | ? | -0.6%&-15.6% | COc1cc(/C=N/NC(=O)c2ccncc2)ccc1O
-30.3% | -11.0 | 3.3% | -4.5% | CCCCN(C)S(=O)(=O)c1ccc(C(=O)N(CCN(C)C)c2nc3ccc(C)cc3s2)cc1
-17.3% | 11.7 | 0.4% | 11.5% | CC(Nc1cc(N2CCNCC2)ccc1[N+](=O)[O-])c1ccccc1 (centres undefined)
. | . | 2.3% | 0.6% | CC(Oc1ccc(Br)cc1)C(=O)NC1CCN(Cc2ccccc2)CC1 (centres undefined)
. | . | -0.4% | -13.7% | COc1ccc(NC(=O)CN(C)CC(=O)NCCc2ccc(F)cc2)cc1
? | . | 0.0% | -0.7% | Cc1cccc(CS(=O)(=O)c2ncc(Cl)c(C(=O)Nc3c(C)cccc3C)n2)c1
-26.8% | -18.1 | 1.1% | -1.1% | CC1CCN(C2=C(NS(=O)(=O)c3ccc(Cl)cc3)C(=O)c3ccccc3C2=O)CC1
-5.0% | . | ? | -29.5% | O=c1cc(Cl)[nH]c(=O)n1Cc1ccc(F)cc1
9.3% | . | 0.1% | 5.0% | CN(C)c1ccccc1C(=O)N1CCCC(Nc2ccc(F)cc2)C1 (centres undefined)
-0.9% | . | ? | 3.3% | COc1ccc(NC(=O)CCC(=O)N/N=C/c2cccnc2)cc1
-4.7% | -0.6 | 0.5% | -8.2% | C=CCn1c(Cc2csc(N)n2)nnc1SCC(=O)OCC
0.2% | 1.5 | 2.2% | 0.6% | O=C(O)C1CCN(Cc2ccccn2)CC1
. | . | -0.3% | 1.7% | O=C(NC1CC1)C1Nc2ccc(OC(F)(F)F)cc2C2C=CCC12 (centres undefined)
-0.8% | -4.2 | -2.1% | -15.4% | C1CCCCCC(NCCN2CCNCC2)CCCCC1
-7.1% | -1.7 | 5.1% | -18.6% | COc1ccc(CCN(C)C(=O)CSc2nccn2C)cc1OC
. | . | -2.8% | -5.9% | Cc1cc(NC(=O)COC(=O)[C@@H]2CCCN2C(=O)c2cccs2)no1
-6.6% | . | -2.8% | 3.8% | O=C(Cc1ccccc1[N+](=O)[O-])N1CCOCC1
. | . | -3.7% | 5.1% | C#CCOCCOCCOCCNc1nc(N2CCN(C(=O)[C@H](C)n3cc(CCC(=O)O)nn3)CC2)nc(N2CCN(C(=O)[C@H](CCCCN)n3cc(CCCC)nn3)CC2)n1
28.7% | 0.4 | 2.5% | 17.1% | CCC(=O)NC(=S)Nc1ccc(NC(=S)NC(=O)c2ccccc2)cc1
-8.3% | -3.8 | ? | 1.6% | Cc1oc(-c2cccs2)nc1CS(=O)CC(=O)NCCc1ccccc1 (centres undefined)
-0.5% | -4.8 | 0.6% | 7.7% | O=C(Cc1ccccc1)NCC(=O)OC(c1ccccc1)c1ccccc1
24.2% | 0.8 | -4.3% | 13.6% | CC(C)C1C(C#N)=C(N)Oc2n[nH]c(-c3ccc4ccccc4c3)c21 (centres undefined)
7.1% | . | 1.3% | 2.7% | COc1ccc(N2CCN(CCCNC(=O)C(=O)c3c[nH]c4ccccc34)CC2)cc1
6.9% | 17.6 | -6.8% | 8.1% | Cc1onc(-c2c(F)cccc2Cl)c1C(=O)Nc1nccs1
-35.2% | 1.8 | -5.1% | 29.4% | C(=N\NCc1ccccc1)/c1ccc2ncccc2c1
-1.2% | . | 1.9% | -3.5% | COc1ccccc1CC(NC(C)=O)C(=O)NC1CCN(C(=O)NCc2ccccc2)CC1 (centres undefined)
-5.8% | -1.4 | -0.5% | 1.4% | CCOC(=O)CC(NS(=O)(=O)c1ccc(NC(C)=O)cc1)c1ccc(OCC)cc1 (centres undefined)
. | . | ? | -20.3% | COc1ccc(OC)c(-c2csc(NC(=O)COC(=O)c3ccc(NC(=O)CC#N)cc3)n2)c1
-1.4% | -0.9 | 2.5% | -10.3% | O=C(NNC(=O)C1CCN(S(=O)(=O)c2ccc(Cl)cc2)CC1)c1ccc(Cl)cc1
. | . | 4.0% | 10.6% | O=C(Nc1ccccc1Cl)O/N=C/c1ccncc1
. | . | 0.1% | 2.7% | O=C(O)c1ccc(Oc2nc3ccccc3s2)cc1
-15.4% | . | -4.5% | -1.1% | O=C(NNC(=O)c1cc2ccccc2oc1=O)c1ccccc1
-0.3% | . | -0.1% | 13.2% | CCOC(=O)c1cc2c(OC)ccc(OC)c2n1CC(=O)c1ccccc1
-13.6% | -4.2 | 1.6% | 9.8% | O=C(NCc1ccco1)C12CC3CC(CC(C3)C1)C2
. | . | -1.5% | 3.9% | Cc1ccc(NC(=O)COc2coc(CN3CCc4ccccc43)cc2=O)c(C)c1
-7.3% | . | ? | -16.3% | O=[N+]([O-])c1cc(NCCO)c(N2CCCCCC2)c2nonc12
-35.6% | 2.1 | -1.9% | 1.2% | CC(=O)c1ccc(Oc2ccc(C(C)=O)cc2)cc1
-16.5% | 2.5 | 0.4% | 3.6% | COC(=O)c1ccc(COc2ccccc2/C=C(\C#N)C(=O)Nc2ccc(C)cc2C)cc1
. | . | -0.1% | -13.8% | CC(=O)N1CCN(c2ccc(Oc3nc(-c4ccccc4)nc4ccccc34)cc2)CC1

# Single entries from the entries so far.
# Result of `O=C(NCc1ccco1)C12CC3CC(CC(C3)C1)C2` in Rango release inh: 9.8%
# Result of `O=C(NNC(=O)C1CCN(S(=O)(=O)c2ccc(Cl)cc2)CC1)c1ccc(Cl)cc1` in Rango-impB inh: 2.5%
# Result of `COc1ccc(OC)c(-c2csc(NC(=O)COC(=O)c3ccc(NC(=O)CC#N)cc3)n2)c1` in Rango release inh: -20.3%
# Result of `CC(=O)c1ccc(Oc2ccc(C(C)=O)cc2)cc1` in Rango release inh: 1.2%
# Result of `O=C(O)c1ccc(Oc2nc3ccccc3s2)cc1` in Rango-impB inh: 0.1%

# From PubChem BioAssay

# Only part of the results is shown; count on the stated rates, not on these rows.
